High-throughput results from PubChem.
DUX4 txn inh = blocks DUX4-driven transcriptional activation; 293T-iDUX4 ZSCAN4-Gaussia luciferase reporter, 24 h; hits give low values; activity change, negative = inhibition, % (no concentration beside the values); actives 0.8% (n = 37,000);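 active = -10% or lower and over 25 points stronger than a control reporter; inconclusive = -10% or lower with a smaller gap; inactive = above -10%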;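 also: 0% = median of neutral control wells and -100% = median of positive control wells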
DUX4 txn inh difference = recorded beside DUX4 txn inh, whose call it bears; Gaussia minus Italica difference, %; measured here: selective DUX4 reporter inhibition;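 worked out from the two reporters; negative = selective loss of the DUX4 reporter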
DUX4 txn inh control = also measured in DUX4 txn inh; calls as there; activity change, negative = inhibition, %; measured here: Italica tet-on control reporter;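 0 = neutral control and -100 = positive control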
* marks the source's active call; other numbers are inactive results; ? = inconclusive; . = not tested or not shown. These rows are one share of the data, so the mix of outcomes need not match the whole.

SMILES | DUX4 txn inh | DUX4 txn inh difference | DUX4 txn inh control
C/C=C/c1ccc([C@H]2[C@@H](CO)N(C(=O)NC(C)C)[C@H]2CN(C)C(=O)CC)cc1 | 3 | -1 | 3.6
COc1ccc2c3c(n(C)c2c1)[C@H](CO)N(CC1CCOCC1)CC31CCN(C(=O)Nc2ccccc2)CC1 | 0 | -9 | 9.2
C[C@H]1CN([C@@H](C)CO)C(=O)c2cc(-c3cccnc3)cnc2O[C@H]1CN(C)C(=O)C1CCCCC1 | 1 | 0 | 1.3
O=C(C[C@@H]1C[C@@H]2c3cc(NC(=O)C4CCC4)ccc3O[C@@H]2[C@H](CO)O1)NCc1cccc(F)c1 | 2 | 5 | -2.5
COc1cccc(NC(=O)N2C[C@@H](O)COC[C@H]3O[C@@H](CC(=O)NC4Cc5ccccc5C4)CC[C@@H]32)c1 | 2 | -1 | 3.2
COCC(=O)N1[C@@H]2CN(C(=O)NC(C)C)c3ccccc3[C@@H]2[C@@H]1CO | 3 | 1 | 1.8
O=C(O)[C@@H]1[C@@H](CO)[C@@H]2Cn3c(ccc(-c4ccccc4F)c3=O)[C@@H]2N1C(=O)c1cnccn1 | -1 | -2 | 1.2
C[C@H]1CN([C@@H](C)CO)C(=O)CCCn2cc(nn2)CO[C@H]1CN(C)C(=O)Nc1ccc(N2CCCCC2)cc1 | -7 | -7 | -0.4
N#C[C@@H]1[C@@H](c2ccc(C3=CCCC3)cc2)[C@@H](CO)N1C(=O)Cc1ccncc1 | -3 | -3 | -0.5
C[C@H](C(=O)N(C)C[C@@H]1OCc2ccccc2-c2ccccc2C(=O)N([C@H](C)CO)C[C@@H]1C)c1ccccc1 | ? | . | .
Cc1ccccc1S(=O)(=O)N1C[C@@H]2N[C@H](C1)C2c1ccc(/C=C/c2ccccc2)cc1 (stereo partly specified) | -37* | -32* | -4.8*
CC(C)NC(=O)N1Cc2cc(C(=O)NCC(F)(F)F)nc(-c3cccc(-c4cc5ccccc5o4)c3)c2[C@H]1CCO | 0 | 0 | -0.2
O=C(Cc1ccccc1)N1C[C@H]2[C@@H](c3ccccc31)[C@H](CO)N2C(=O)C1CCOCC1 | 0 | 3 | -3.6
CCc1nc(N2[C@H](C#N)[C@H](c3ccccc3-c3ccccc3F)[C@H]2CO)sc1C | 10 | 1 | 8.5
COc1ccc(-c2ccc([C@H]3[C@H](C#N)N(C(=O)C4CCC4)[C@H]3CO)cc2)cc1 | -3 | 2 | -4.7
CCCNC(=O)C[C@H]1CC[C@H]2[C@@H](COC[C@@H](O)CN2C(=O)c2cccnc2)O1 | 4 | 0 | 4.1
COc1ccc2c3c(n(C)c2c1)[C@@H](CO)N(C)CC31CCN(CC2CC2)CC1 | 9 | 10 | -0.4
C[C@H]1CN([C@@H](C)CO)C(=O)c2c(c3ccccc3n2C)-c2ccccc2CO[C@@H]1CN(C)C(=O)[C@@H](Cc1ccccc1)N(C)C | 0 | -5 | 5.2
COc1ccc2c3c([nH]c2c1)[C@@H](CO)N(Cc1ccc(F)cc1)CC31CCN(C)CC1 | ? | . | .
COc1cccc(C#Cc2ccc([C@H]3[C@@H](CO)N4C(=O)CN(S(=O)(=O)c5ccccc5C)C[C@@H]34)cc2)c1 | -10 | -4 | -5.7

Compound profiles, from the list above. Order of values: DUX4 txn inh	DUX4 txn inh difference	DUX4 txn inh control
CCc1nc(N2[C@H](C#N)[C@H](c3ccccc3-c3ccccc3F)[C@H]2CO)sc1C is listed with 10	1	8.5
C[C@H]1CN([C@@H](C)CO)C(=O)c2c(c3ccccc3n2C)-c2ccccc2CO[C@@H]1CN(C)C(=O)[C@@H](Cc1ccccc1)N(C)C is listed with 0	-5	5.2
CC(C)NC(=O)N1Cc2cc(C(=O)NCC(F)(F)F)nc(-c3cccc(-c4cc5ccccc5o4)c3)c2[C@H]1CCO is listed with 0	0	-0.2
C[C@H]1CN([C@@H](C)CO)C(=O)c2cc(-c3cccnc3)cnc2O[C@H]1CN(C)C(=O)C1CCCCC1 is listed with 1	0	1.3
COc1cccc(NC(=O)N2C[C@@H](O)COC[C@H]3O[C@@H](CC(=O)NC4Cc5ccccc5C4)CC[C@@H]32)c1 is listed with 2	-1	3.2

Carrying on:
SMILES | DUX4 txn inh | DUX4 txn inh difference | DUX4 txn inh control
COc1cccc(S(=O)(=O)Nc2ccc3c(c2)[C@H]2C[C@@H](CC(=O)NCc4ccc(Cl)cc4)O[C@H](CO)[C@H]2O3)c1 | ? | . | .
O=C(NCc1cc(F)cc(F)c1)[C@H]1[C@H](CO)[C@H]2Cn3c(cccc3=O)[C@@H]1N2C(=O)c1cnccn1 | 6 | 4 | 2.6
CC(C)NC(=O)N1Cc2cc(C(=O)NC3Cc4ccccc4C3)nc(-c3cccc(-c4cccnc4)c3)c2[C@H]1CCO | -4 | -3 | -0.9
O=C(C[C@H]1CC[C@@H]2[C@H](COC[C@@H](O)CN2Cc2cccc(-c3ccncc3)c2)O1)N1CCOCC1 | -1 | 7 | -7.7
C[C@H](CO)N1C[C@H](C)[C@@H](CN(C)S(=O)(=O)c2cn(C)cn2)Oc2c(cccc2N(C)C)C1=O | 1 | -4 | 5.4
CC(C)[C@@H]1C/C=C\CCNC(=O)[C@H](C)CC(=O)N1 | 5 | 4 | 1.0
O=C(c1cccc(F)c1)N1C[C@@H]2[C@H](c3ccccc31)[C@@H](CO)N2C(=O)Cc1ccccc1 | -3 | -2 | -0.9
O=C(C[C@H]1CC[C@H]2[C@@H](COC[C@@H](O)CN2C(=O)c2ccc3c(c2)OCO3)O1)NCCN1CCCCC1 | 4 | -3 | 6.7
CCCNC(=O)C[C@@H]1CC[C@H]2[C@@H](COC[C@@H](O)CN2C(=O)c2cccnc2)O1 | 4 | 0 | 4.3
CC(=O)N1[C@H](CN(C(=O)c2ccc(F)cc2)C(C)C)[C@@H](c2ccccc2)[C@@H]1CO | 4 | 1 | 3.1
N#C[C@@H]1[C@H](c2ccccc2C2=CCCC2)[C@H](CO)N1C(=O)NC1CCCCC1 | 1 | -2 | 2.6
C[C@H](CO)N1C[C@H](C)[C@@H](CN(C)C(=O)Cc2ccccc2)OCCCC[C@H](C)Oc2ccc(NC(=O)Nc3ccc(C(F)(F)F)cc3)cc2C1=O | 4 | 3 | 0.8
OC[C@H]1[C@H](c2ccc(C#CC3(O)CCCC3)cc2)[C@H]2CN(Cc3cncnc3)CCCCN21 | 1 | -7 | 7.4
CCCC#Cc1ccc([C@@H]2[C@H](CO)N3C(=O)CN(S(=O)(=O)c4ccccc4C)C[C@@H]23)cc1 | ? | . | .
CC(C)C#Cc1ccc([C@@H]2[C@H](CO)N3C(=O)CN(C(=O)c4ccc5c(c4)OCO5)C[C@@H]23)cc1 | 4 | 11 | -7.2
COc1ccc(C#Cc2ccc([C@H]3[C@@H](CO)N4C(=O)CN(C(C)=O)C[C@@H]34)cc2)cc1 | 2 | 5 | -2.5
COc1ccc(CNC(=O)C[C@H]2CC[C@H](NC(=O)CN(C)C)[C@H](CO)O2)cc1 | 1 | -5 | 6.0
O=C(C1CCCC1)N1CC2(C1)[C@H](c1ccccc1)[C@H](CO)N2C(=O)CC1CC1 | 4 | 3 | 1.0
CCN1CC(=O)N2[C@H](CO)[C@@H](c3ccc(Br)cc3)[C@@H]2C1 | 0 | -1 | 1.5
O=C(Cc1ccccn1)N1CC(=O)N2[C@H](CO)[C@H](c3ccc(C#CCC4CCCC4)cc3)[C@H]2C1 | 1 | -4 | 5.2

Two of these compounds in another layout:
Results follow in this order: DUX4 txn inh	DUX4 txn inh difference	DUX4 txn inh control
CCN1CC(=O)N2[C@H](CO)[C@@H](c3ccc(Br)cc3)[C@@H]2C1
 : 0	-1	1.5
O=C(Cc1ccccn1)N1CC(=O)N2[C@H](CO)[C@H](c3ccc(C#CCC4CCCC4)cc3)[C@H]2C1
 : 1	-4	5.2

Continued:
SMILES | DUX4 txn inh | DUX4 txn inh difference | DUX4 txn inh control
CCCNC(=O)N1CC2(CN(Cc3cccnc3)C2)c2c(n(C)c3cc(OC)ccc23)[C@H]1CO | 4 | 3 | 0.3
COc1ccccc1S(=O)(=O)N[C@H]1C=C[C@@H](CC(=O)N2CCOCC2)O[C@@H]1CO | 2 | 12 | -9.4
O=C1CNC[C@@H]2[C@H](c3ccc(C#Cc4cccnc4)cc3)[C@H](CO)N12 | ? | . | .
CNC(=O)C[C@H]1CC[C@H]2[C@@H](COC[C@H](O)CN2C(=O)Nc2ccc3c(c2)OCO3)O1 | 3 | 0 | 2.5
C[C@@H]1CN([C@H](C)CO)C(=O)c2cc(NC(=O)CCN3CCOCC3)ccc2O[C@H]1CN(C)CC1CCCCC1 | -1 | -4 | 2.4
O=C(C[C@@H]1C=C[C@@H](NC(=O)c2cccnc2)[C@H](CO)O1)NCc1ccncn1 | 5 | 8 | -3.7
CO[C@@H]1CN(C)C(=O)c2cc(NC(C)=O)ccc2OC[C@H](C)N(S(C)(=O)=O)C[C@H]1C | 0 | -3 | 2.9
CNC[C@H]1Oc2c(NC(=O)Nc3c(C)noc3C)cccc2C(=O)N([C@H](C)CO)C[C@@H]1C | -2 | -1 | -0.6
O=C(C1CCCC1)N1CC2(C1)[C@H](c1ccccc1)[C@H](CO)N2Cc1cncnc1 | 8 | 2 | 5.9
C[C@@H]1CN([C@H](C)CO)C(=O)CCCn2nncc2CO[C@H]1CN(C)C(=O)CCC(F)(F)F | 8 | 7 | 0.7
COC(=O)C[C@@H]1C[C@@H]2c3cc(NC(=O)CN(C)C)ccc3O[C@@H]2[C@H](CO)O1 | 10 | 10 | -0.4
C/C=C/c1ccc([C@@H]2[C@@H](CO)N3C(=O)CN(Cc4ccc(C(=O)OC)cc4)C[C@@H]23)cc1 | 1 | -8 | 8.7
C[C@@H]1CCCCO[C@H](CN(C)C(=O)Cc2ccccc2)[C@@H](C)CN([C@@H](C)CO)C(=O)c2cc(NC(=O)CCCN(C)C)ccc2O1 | 1 | 1 | 0.2
COc1ccc2c3c(n(C)c2c1)[C@@H](CO)N(C)CC31CCN(C(=O)C2CCC2)CC1 | 16 | 14 | 2.0
CCS(=O)(=O)N1CC2(C1)[C@@H](c1ccccc1)[C@H](CO)N2Cc1ccccn1 | 6 | -4 | 10
CCc1nc(N2[C@@H](C#N)[C@H](c3ccccc3-c3ccccc3C)[C@@H]2CO)sc1C | -2 | 4 | -6.0
CN(C)CC#Cc1ccc([C@@H]2[C@@H](CO)N3CCCCN(CC4CCOCC4)C[C@H]23)cc1 | 26 | 32 | -5.4
C[C@@H](NC(=O)C[C@H]1C[C@@H]2c3cc(NC(=O)C4CCOCC4)ccc3O[C@@H]2[C@@H](CO)O1)c1ccccc1 | 3 | 4 | -0.3
COC(=O)C[C@H]1CC[C@H]2[C@@H](COC[C@H](O)CN2S(=O)(=O)c2cn(C)cn2)O1 | 10 | 8 | 2.1
CCCN1C[C@@H](C)[C@H](OC)CN(C)C(=O)c2cc(NC(=O)c3cccc(OC)c3)ccc2OC[C@@H]1C | -8 | -6 | -1.2
COc1ccc2c3c([nH]c2c1)[C@H](CO)N(Cc1ccccc1)CC31CCN(S(C)(=O)=O)CC1 | ? | . | .
Cc1ccc(NC(=O)Nc2ccc3c(c2)C(=O)N(C)[C@@H]2CC[C@@H](CC(=O)O)O[C@H]2CO3)cc1 | 1 | -2 | 2.6
O=C(N[C@@H]1CC[C@@H](CC(=O)N2CCc3ccccc3C2)O[C@H]1CO)C1CCOCC1 | 4 | 13 | -9.0
C[C@H]1CN([C@@H](C)CO)C(=O)CCCn2nncc2CO[C@H]1CN(C)Cc1ccc2c(c1)OCCN2C | -2 | -2 | 0.3
CCC(=O)N(C)C[C@@H]1Oc2cc(-c3ccccc3C)ccc2S(=O)(=O)N([C@@H](C)CO)C[C@@H]1C | ? | . | .
O=C(C[C@@H]1CC[C@H]2[C@@H](COC[C@H](O)CN2Cc2cc(F)ccc2F)O1)NCc1ccccc1 | -2 | -5 | 2.6
O=C(Cc1ccccn1)N[C@H]1CC[C@@H](CCn2cc(-c3ccc(F)cc3)nn2)O[C@@H]1CO | 8 | 9 | -1.1
O=C(C[C@@H]1C[C@H]2c3cc(NS(=O)(=O)c4ccc(F)cc4)ccc3O[C@H]2[C@H](CO)O1)NCCc1ccccc1 | -7 | -1 | -5.4
CN1C(=O)c2cc(NC(=O)Nc3ccccc3F)ccc2OC[C@H]2O[C@H](CC(=O)NCCc3ccncc3)CC[C@@H]21 | -3 | -5 | 2.2
CC(C)COC(=O)N(C)C[C@@H]1OCc2cnnn2CCCC(=O)N([C@@H](C)CO)C[C@@H]1C | 3 | 0 | 2.9
N#C[C@@H]1N[C@H](CO)[C@H]1c1ccc(C#CC2CCCC2)cc1 | -3 | -4 | 0.5
COCC(=O)N1C[C@H]2[C@@H](c3ccccc31)[C@@H](CO)N2C(=O)C1CCCC1 | 1 | -4 | 4.9
O=C(C[C@@H]1CC[C@H]2[C@@H](COC[C@@H](O)CN2C(=O)c2ccccc2)O1)NCCCN1CCOCC1 | 4 | 1 | 3.1
COc1ccccc1NC(=O)N1CCCCN2[C@@H](CO)[C@@H](c3ccc(C#CC4CCCC4)cc3)[C@@H]2C1 | ? | . | .
CO[C@@H]1CN(C)C(=O)c2ccc(NS(=O)(=O)c3ccccc3C)cc2OC[C@@H](C)NC[C@H]1C | 1 | 2 | -0.5
CC(=O)N1[C@@H]2Cn3c(ccc(C4=CCCCC4)c3=O)[C@H]1[C@@H](C(=O)NCc1cc(F)cc(F)c1)[C@@H]2CO | 6 | 6 | -0.2
C[C@@H]1CN([C@H](C)CO)C(=O)CCCn2cc(nn2)CO[C@H]1CN(C)Cc1ccc(Cl)c(Cl)c1 | 4 | 9 | -4.9

Structures from the list above containing a COOH group (two):
SMILES | DUX4 txn inh | DUX4 txn inh difference | DUX4 txn inh control
O=C(O)[C@@H]1[C@@H](CO)[C@@H]2Cn3c(ccc(-c4ccccc4F)c3=O)[C@@H]2N1C(=O)c1cnccn1 | -1 | -2 | 1.2
Cc1ccc(NC(=O)Nc2ccc3c(c2)C(=O)N(C)[C@@H]2CC[C@@H](CC(=O)O)O[C@H]2CO3)cc1 | 1 | -2 | 2.6
